B2AR ag: activates human beta-2 adrenergic receptor causing internalization | P07550 | 340,000 tested, 0.43% active | Am2.2-beta2AR cells, FAP receptor internalization, flow cytometry; reference of the scale not given here | response, % (no concentration beside the values);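 active means response above a set limit, near 3 SD of response in nonfluorescent compounds, cut at about 42% in these data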;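 further: stock transfer was 100 nL into about 11 µL; a reference agonist was the positive control; negative values mostly stem from fluorescent compounds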
Target sequence (P07550 whole entry, looked up): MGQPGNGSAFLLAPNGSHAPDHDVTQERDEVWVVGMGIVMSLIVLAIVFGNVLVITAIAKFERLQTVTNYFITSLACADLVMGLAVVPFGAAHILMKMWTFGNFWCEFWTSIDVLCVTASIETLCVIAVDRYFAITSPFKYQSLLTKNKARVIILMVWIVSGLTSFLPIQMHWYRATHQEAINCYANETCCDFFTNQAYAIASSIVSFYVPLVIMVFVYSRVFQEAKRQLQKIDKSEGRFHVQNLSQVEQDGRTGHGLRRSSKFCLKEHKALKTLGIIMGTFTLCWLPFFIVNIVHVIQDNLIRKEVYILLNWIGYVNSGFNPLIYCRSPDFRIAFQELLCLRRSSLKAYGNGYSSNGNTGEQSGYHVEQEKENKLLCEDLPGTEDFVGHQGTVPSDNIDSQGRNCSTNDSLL
LANA-H2B inh: blocks KSHV LANA binding to histone H2A/H2B; inhibition, % (concentration not given with the values); Q9QR71; cell-free LANA-H2A/H2B peptide, fluorescence polarization; 320,000 tested, 0.6% active; in the data active means inhibition mostly above about 10%, no sharp cut-off; inactive means mostly below about 6.7%;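 further: stock transfer was 7.5 nL into about 10 µL; 0% = median of vehicle wells and 100% = median of positive control wells; one replicate is shown; the record names a cut of 25% in any replicate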
A1 inh: inhibitors of the anti-apoptotic protein A1, read as caspase activation | MEF A1-2A-BIM cells, Caspase-Glo 3/7 luminescence, 3 h; percent of clofoctol response, vehicle zero | caspase activation, % (concentration not given with the values) | 330,000 tested, 0.066% active;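 active means over half of replicate activation scores above 10%, or exactly half above 10 with the replicate mean above 10; inconclusive means replicate mean below 10 yet half the replicates above 10; inactive means over half of replicates below 10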;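 further: wells of about 30 µL received 50 nL stock; many hits fall short of the cut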
Beta cell apopt: blocks beta cell apoptosis. INS-1E cytokine-induced death, ATP luminescence, 48 h; percent of positive-control rescue, neutral wells zero. protection from apoptosis, % (no concentration beside the values). 300,000 tested, 0.8% active. AID 435005;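 active means all replicates at 75% or more, or half of them and the mean; inconclusive means half reach 75% but not the mean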;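 further: 0% = cytokine-treated negative control wells and 100% = positive control rescue; higher means more ATP so stronger rescue from cytokine killing; wells of about 40 µL received 100 nL stock; the first replicate is given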
Ecoli rRNA inh: selective bacterial rRNA inhibition in E. coli; E. coli WT GFP vs humanized-ribosome RFP mutants, fluorescence, 24 h; active compounds read low; DMSO median 0, no signal -100; GFP signal change (wild-type ribosome), % (no concentration beside the values); 350,000 tested, 1.6% active; AID 720706;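 active means significant combined selectivity score with lowered wild-type GFP, culture density cut under 30%, mutant RFP and density less affected; inactive means any of these conditions unmet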; further: one replicate is shown; some compounds called inactive have numbers as strong as hits
T cruzi inh: T. cruzi replication inhibition; inhibition, % (test concentration not listed); 300,000 tested, 1.4% active; T. cruzi beta-gal in NIH3T3, luminescence, 90 h;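 active means mean inhibition across valid replicates above about 55%, limit read from the data; inconclusive means mean below that limit but half or more replicates reach it; inactive means mean below it, under half of replicates reach it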;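 further: signal also drops with host cell toxicity which is not excluded here; 0% = plate median of DMSO wells and 100% = zero luminescence signal; higher percent means less beta-gal luminescence so fewer parasites; stock transfer was 50 nL into about 50 µL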
Calb FLC: affects C. albicans growth with fluconazole | C. albicans CaCi-2 (fluconazole-resistant clinical isolate) + fluconazole, Alamar Blue growth, 48 h | growth inhibition, % (concentration not given with the values) | 300,000 tested, 0.57% active | AID 1979;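 active means most replicates above 75%; inconclusive means exactly half above 75%; inactive means most below 75%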;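 further: all wells also contain fluconazole at 8 µg/ml as a sub-toxic cotreatment; 0% = median of DMSO wells and 100% = median of geldanamycin control wells; wells of about 8 µL received 7.5 nL stock; the first replicate is given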
ALR H2O2 inh: inhibitors of human sulfhydryl oxidase ALR; inhibition, % (no concentration beside the values); P55789; 290,000 tested, 3.8% active; purified ALR, DTT oxidation, H2O2 HRP-luminol luminescence; AID 485317;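 active means mean and each replicate at 75% or more; inconclusive means only one of the two met; inactive means neither met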;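 further: stock transfer was 7.5 nL into about 7.5 µL; 0% = neutral wells and 100% = wells with inactivated enzyme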
Target sequence (P55789 whole entry, looked up): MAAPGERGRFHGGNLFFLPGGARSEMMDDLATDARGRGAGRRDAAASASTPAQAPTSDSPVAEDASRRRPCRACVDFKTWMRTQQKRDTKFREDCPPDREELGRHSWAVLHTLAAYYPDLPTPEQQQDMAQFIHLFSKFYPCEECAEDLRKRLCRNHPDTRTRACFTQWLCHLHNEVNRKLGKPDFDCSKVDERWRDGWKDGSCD
Ecoli rRNA inh OD600: also measured in Ecoli rRNA inh; calls as there; OD600 change, %; measured here: OD600 growth;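 optical density of the mix in the first replicate; 0 = DMSO median and -100 = no signal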
Ecoli rRNA inh RFP: second read-out of Ecoli rRNA inh, no call of its own (marks repeat the call); RFP signal change, %; measured here: RFP humanized mutant strains;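 first replicate; 0 = DMSO median and -100 = no signal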
* = called active by the depositor; ? = inconclusive; . = not tested or not shown; & = joins results of further samples; ! = repeats disagree. An excerpt; count on the stated rates, not on these rows.

SMILES	B2AR ag	LANA-H2B inh	A1 inh	Beta cell apopt	Ecoli rRNA inh	Ecoli rRNA inh OD600	Ecoli rRNA inh RFP	T cruzi inh	Calb FLC	ALR H2O2 inh
O=C(O)CC(CC(=O)O)c1ccsc1	-6	2.7	0.9	-3	6	6	0.3	.	.	-12
Nc1ccccc1S(=O)(=O)C(F)F	2	-3.6	0.9	-3	2	7	1.2	-26	-7	-5
Cc1cc(C)n2ncc(C(=O)NCc3cccnc3)c2n1	-13	7.9	-0.4	-5	.	.	.	-4	8	-6
O=C(NC1CCCCC1)c1ccc(CS(=O)Cc2ccccc2Cl)o1 (stereo unspecified)	-5	0.6	-0.2	-2	-7	-4	-2.5	21	-16	1
COc1ccc(C(=O)C2CCCN(C(=O)C3=CCCC3)C2)c(C)c1 (stereo unspecified)	-6	-6.9	0.7	-3	2	-1	8.1	2	-1	.
Cc1ccc(NC(=O)CSc2nnnn2-c2cccnc2)c(C)c1	-7	-3.1	-0.3	1	0	-8	-1.0	-8	7	.
CCOC(=O)C1(Cc2ccccc2)CCN(Cc2cnn(C(C)C)c2)CC1	0	1.3	0.4	-5	9	9	-0.5	-3	-6	-3
O=C1OC(CN2CCOCC2)CN1N=Cc1ccc([N+](=O)[O-])o1 (stereo unspecified)	6	-2.8	-0.3	-3	.	.	.	.	.	-4
Cc1ccc(/C=N/NC(=O)c2c[nH]c3ccccc23)s1	11	-0.5	-0.9	9	.	.	.	3	-1	0
Cc1ccc(CNCC(=O)Nc2ccc(C)cc2Br)cc1	-7	-0.7	-0.4	-3	-34	-40	-4.5	-2	-24	.
CC(=O)c1ccc(NC(=S)N(C)C2CCN(C)CC2)cc1	-12	3.8	-0.4	-5	.	.	.	8	18	-20
COC(=O)c1ccc(N2C(=O)CC(N3CCOCC3)C2=O)cc1 (stereo unspecified)	1	-5.5	-1.5	-5	.	.	.	-3	?	-3
Cc1ccccc1NC(=O)Cn1cccc1	6	4.9	-0.4	2	12	10	-2.2	-9	0	-3
Cc1ccnc(NC(=O)c2ccc(Cl)cc2Cl)n1	.	-0.2	0.3	-6	7	12	-2.5	-8	-2	0
O=C(N/N=C\c1c(F)c(F)c(F)c(F)c1F)c1ccc(-c2ccccc2)cc1	3	-0.1	1.3	-4	9	6	2.1	-14	7	-4
O=C(Nc1ccccc1O)c1ccc2c(c1)C(=O)N(Cc1ccco1)C2=O	6	-0.6	-2.2	0	7	6	0.8	.	-15	-7
C1CCN=C(NC23CC4CC(CC(C4)C2)C3)CC1	.	-3.2	1.0	-6	.	.	.	-16	0	-1
COc1c(C)cc(S(=O)(=O)NCCN2CCOCC2)c(C)c1C	1	4.1	0.0	0	19	12	1.3	0	-4	.
CN(C1CCS(=O)(=O)C1)S(=O)(=O)c1ccccc1 (stereo unspecified)	1	4.3	-0.4	-2	28	18	0.6	-10	0	0
Cc1nn(C)cc1/C=N/NC(=O)c1ccco1	-5	0.2	-0.5	-1	-1	-4	4.0	-7	-2	.
O=C(O)c1cc(NCc2ccccc2)ccc1N1CCOCC1	1	13	-0.4	-1	.	.	.	-1	-6	49
C[C@@H]1CN([C@H](C)CO)C(=O)Cc2cc(NC(=O)Nc3ccccc3)ccc2O[C@@H]1CN(C)Cc1ccc2c(c1)OCO2	5	-1.8	0.8	-1	11&13	-10&-21	-0.3&21	.	.	-4
COc1ccc(/C=C/C(=O)NC(=S)N2CCN(c3ccccn3)CC2)cc1OC	0	-9.0	-0.3	-1	-18	-15	-2.5	-7	-15	.
COc1ccccc1NC(=O)c1c(Nc2ccccc2F)sc(C(=O)Nc2cccc(Cl)c2)c1N	5	8.2	-0.1	9	.	.	.	6	9	-22
Clc1cccc(CN2CCN(Cc3nc(CCc4ccccc4)no3)CC2)c1	-7	1.5	-1.6	-6	-32*	-21*	-3.1*	46	-13	-4
Further compounds:
SMILES	B2AR ag	LANA-H2B inh	A1 inh	Beta cell apopt	Ecoli rRNA inh	Ecoli rRNA inh OD600	Ecoli rRNA inh RFP	T cruzi inh	Calb FLC	ALR H2O2 inh
Cc1ccc(-c2n[nH]c(=S)n2Cc2ccccc2)cc1	-4	1.2	1.1	1	.	.	.	-5	6	55
CN(C(=O)c1cc(S(=O)(=O)N2CCc3ccccc32)cn1C)C1CCCCC1	-1	2.4	0.4	1	-8	-26	4.1	21	11	-6
COc1ccc(CNc2nn[nH]n2)cc1OC	17	-5.6	-1.1	.	.	.	.	-3	-16	3
O=C(CN(Cc1ccccc1)S(=O)(=O)c1ccc(Cl)cc1)NCC1CCCO1 (stereo unspecified)	-10	14*	0.6	-3	-7	1	0.3	7	0	.
COc1ccc(N(C(=O)c2snc(C(N)=O)c2N)C(CC(C)C)C(=O)NCC2CCCO2)cc1 (stereo unspecified)	-11	-1.8	0.1	2	.	.	.	4	1	-11
Cc1oc(-c2ccccc2)nc1C(=O)Nc1nccs1	-2	4.5	-0.2	2	.	.	.	-18	?	-5
N#CC1=C(N)OC2=C(C(=O)CCC2)C1Cc1ccccc1 (stereo unspecified)	7	-0.9	-0.2	-1	.	.	.	5	-11	60
COc1ccc(C(=O)NC23CC4CC(CC(C4)C2)C3)cc1OC	-1	3.6	0.6	2	7	-2	0.0	-13	6	0
CC(C)(C)NC(=O)C(c1ccncc1)N(C(=O)c1csnn1)c1cccc2ccccc12 (stereo unspecified)	-11	1.9	-0.9	-7	2	-8	-12	-3	-8	-15
C=CCNC(=S)NNC(=O)c1cc(Cl)ccc1OC	3	-14	0.2	-2	2	2	6.4	-10	-4	6
COC(=O)CN(c1ccc(OC)cc1)S(=O)(=O)c1ccc(OC)c(OC)c1	-1	-5.1	0.4	-10	.	.	.	-19	3	-2
CNC(=S)N1CCN(c2ccccn2)CC1	-2	-4.9	-0.8	5	1	5	6.0	-8	-9	3
O=C1NCCN1CCNS(=O)(=O)c1ccc(F)cc1	3	18	0.6	-5	7	7	3.6	-1	-5	-5
Cc1c(N=C2C=CC(=O)c3ccccc32)c(=O)n(-c2ccccc2)n1C	44*	.	.	.	-29	-30	-5.9	6	59	.
COc1ccc(Cl)cc1N(CC(=O)NCCSc1ccccn1)S(=O)(=O)c1ccccc1	0	0.1	0.4	3	-9	-15	1.6	8	-1	0
CN(C)C(=O)Oc1ccc[n+](C)c1	-3	74*!	-0.3	2	11	10	1.1	-5	.	.
O=C1C2C3C=CC(C3=C(c3ccccc3)c3ccccc3)C2C(=O)N1Cc1ccccc1 (stereo unspecified)	-5	5.8	-0.1	7	.	.	.	18	-1	.
Cc1cc(C)n(C2CC(=O)N(c3cc(Cl)cc(Cl)c3)C2=O)n1 (stereo unspecified)	-3	-4.6	-0.2	2	8	2	5.1	1	-3	.
CCOC(=O)C1(Cc2cccc(OC)c2)CCN(Cc2cnc(C)s2)CC1	0	2.0	-0.2	-4	-8	-14	-7.0	17	-24	-11
O=C(Nc1ccc(Cl)c(S(=O)(=O)N2CCOCC2)c1)[C@@H]1CCCN1C(=O)c1cccs1	1	2.4	0.2	-2	-1	-7	3.1	.	.	44
O=C(NC1CCCC1)C(c1ccncc1)N(C(=O)c1csnn1)C1CCCC1 (stereo unspecified)	-1	0.1	-0.1	-2	16	11	-9.3	1	-3	7
O=C(NCc1ccc2c(c1)OCO2)C1CCN(S(=O)(=O)c2cccs2)CC1	-3	2.1	0.2	-14	.	.	.	1	-3	-2
Cc1cccc(C(=O)NCc2nnc(SC(C)C(=O)Nc3nnc(C)s3)n2C)c1 (stereo unspecified)	-2	.	0.3	-2	0	3	-1.8	-12	0	.
COc1ccc(/C=N/NC(=O)c2ccc(Cn3cc([N+](=O)[O-])cn3)o2)cc1O	-1	7.2	-0.6	7	.	.	.	.	-1	66
COCCOc1cc(N)c(Cl)cc1Cl	0	-3.9	0.1	-1	2	2	1.7	7	-7	-29
Going on with the list:
SMILES	B2AR ag	LANA-H2B inh	A1 inh	Beta cell apopt	Ecoli rRNA inh	Ecoli rRNA inh OD600	Ecoli rRNA inh RFP	T cruzi inh	Calb FLC	ALR H2O2 inh
COc1c(C)cc(S(=O)(=O)NC2CC(C)(C)NC(C)(C)C2)c(C)c1C	5	3.9	0.3	-3	.	.	.	1	-5	-4
CCn1c(=O)n(CC(=O)N(C)Cc2ccccc2)c(=O)c2ccccc21	-3	-3.9	0.4	-8	.	.	.	14	1	-2
Fc1ccccc1/C=C/c1ccc2ccccc2n1	-9	-6.3	-8.5	8	.	.	.	1	-23	3
O=C(C[C@H]1C/C=C/CC[C@@H](Cc2ccc(F)cc2)C(=O)OC[C@H](c2ccccc2)NC1=O)NCCO	2	-2.7	-0.6	3	5	9	2.5	.	.	-1
COC(=O)C1=C(C)NC(=S)NC1c1ccco1 (stereo unspecified)	3	-1.1	-0.5	-3	1	9	-1.5	-14	-5	14
COc1cc(C(=O)OCCCN=C2NS(=O)(=O)c3ccccc32)cc(OC)c1OC	-4	-2.7	1.0	0	-1	-9	0.0	-11	-3	-12
Cc1cccc(NC(=O)COC(=O)CN2CCCCCC2=O)c1C	-42	2.4	-0.1	-3	7	7	-2.1	.	.	-2
C=C(Br)Cn1c(CCC)nc2ccccc21	6	2.6	-0.1	-3	.	.	.	-14	-5	-3
CCN1c2ccccc2-c2nc3ccccc3n2C1c1ccco1 (stereo unspecified)	0	2.2	0.4	-7	.	.	.	-18	-1	-6
COc1cc(NC(=O)c2ccc3c(c2)S(=O)(=O)N=C2CCCCCN23)cc(OC)c1	8	1.3	-0.6	.	-3	1	-0.8	-8	2	-14
CNc1nc2cc([N+](=O)[O-])c([N+](=O)[O-])cc2nc1NC	2	6.5	0.3	98*	25	12	5.9	-16	6	-19
CCOP(=O)(OCC)c1nc(/C=C/c2ccccc2)oc1NCc1ccc(OC)cc1	1	-0.4	-0.2	10	-4	-10	2.2	21	11	4
CN(C)C(CNc1ccc(C(F)(F)F)cn1)c1ccccc1 (stereo unspecified)	1	-6.6	0.0	-15	12	13	-0.4	26	4	-2
COc1cccc(/C=N/Nc2nc(Nc3ccccc3)nc(-n3nc(C)cc3C)n2)c1O	11	0.2	0.2	135*	.	.	.	45	5	.
CN(c1ccc(C(=O)N2CCN(c3ccc(F)cc3)CC2)cc1)S(C)(=O)=O	-3	1.6	0.6	-3	.	.	.	9	12	-3
COc1ccc(Cl)cc1NC(=O)c1ccccc1C	4	3.5	-0.6	-3	.	.	.	4	-8	-11
COCc1ccc(-c2c(-c3ccc(OC)cc3)oc(=O)c3cc(OC)c(OC)cc23)cc1	5	-5.0	-3.9	16	-4	-11	-3.6	.	.	3
Cc1cc(C)c(NC(=S)NCCCSC2CCCCC2)c(C)c1	14	-3.7	0.4	46	-32	-52	20	52	-14	.
CN(Cc1ccc(F)cc1)C(=O)c1cc(COc2ccc(-n3cncn3)cc2)on1	-7	-20	-0.3	4	-14	-16	-4.0	0	-22	-16

Printed as active in B2AR ag (from the list above):
SMILES | B2AR ag | LANA-H2B inh | Ecoli rRNA inh | Ecoli rRNA inh OD600 | Ecoli rRNA inh RFP | ALR H2O2 inh
Cc1c(N=C2C=CC(=O)c3ccccc32)c(=O)n(-c2ccccc2)n1C | 44* | . | -29 | -30 | -5.9 | .

Assay outcomes (PubChem)
